High-throughput results from PubChem.
PrP UTR inh = suppresses PrP 5' UTR mRNA reporter expression. cell-based PrP 5' UTR mRNA reporter, plate reader. inhibition, % (concentration not given with the values). hit rate 0.35% among 340,000;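 active means every replicate at 50% or more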;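 further: 0 = median of the neutral control wells; tested in H4 reporter cells; numbers are from one replicate; inactives centre near -14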
BJeLR lethal = BJeLR cell viability loss; BJeLR (HRASV12) viability, CellTiter-Glo ATP luminescence, 48 h; reference of the scale not given here; inhibition, % (concentration not given with the values); hit rate 0.17% among 300,000; AID 1554;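 active means replicate mean above 50%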;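 further: 50 nL library stock added to about 25 µL; numbers are from one replicate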
Autofluor counter = counter-screen for toxin protease inhibitors: compound fluorescence. fluorescence intensity (no concentration beside the values). hit rate 3.1% among 360,000. AID 624483. compound autofluorescence counterscreen, microsphere flow cytometry; hits give high values;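 active means at least 3 SD above the mean of all compounds, about 16000 in these data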;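 further: 100 nL of 1 mM stock went into each well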
Mtb hypoxia rep = inhibitors of hypoxia-regulated fluorescent reporter in Mycobacterium tuberculosis; M. tuberculosis hypoxia-regulated fluorescent reporter, fluorescence; fluorescence inhibition, % (concentration not given with the values); hit rate 0.1% among 300,000;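 active means 35 to 45% if threefold the growth effect, above 45% if 1.5-fold the growth effect; inactive means the rest, general growth blockers included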;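 further: wells of about 50 µL received 100 nL stock; 0% = vehicle wells and 100% = reference inhibitor wells; whole bacteria with a GFP reporter of the hypoxia response; strong numbers were not always called active; many hits fall short of the cut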
RN4220 kill = S. aureus RN4220 growth inhibition | OD600, 16 h | inhibition, % (concentration not given with the values) | hit rate 0.33% among 330,000;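 active means z-score of -3 or lower and OD600 up to 0.18 on both plates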;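 further: plate controls were untreated cells for no effect and reference antibiotic for full effect; stock transfer was 100 nL into about 80 µL; one replicate is shown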
ugtP null kill = growth inhibition of S. aureus ugtP deletion strain | S. aureus RN4220 ugtP deletion, OD600 growth, 16 h; some inactives read as strong as hits | hit rate 0.54% among 330,000 | growth inhibition, % (no concentration beside the values);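 active means z-score under -3 and OD600 up to 0.15 on both plates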;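 further: plate controls were untreated wells for no effect and antibiotic for full effect; wells of about 80 µL received 100 nL stock; the first replicate is given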
Mtb hypoxia rep growth = also measured in Mtb hypoxia rep; calls as there; growth inhibition, %; measured here: M. tuberculosis growth (absorbance);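 0% = vehicle and 100% = reference antibiotic; read after six days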
An asterisk follows results filed as active; . = no result given. Outcome played no part in choosing rows; about 3.9% have a hit in one of these screens.

Fields – PrP UTR inh, BJeLR lethal, Autofluor counter, Mtb hypoxia rep, Mtb hypoxia rep growth, RN4220 kill, ugtP null kill
1	CCCn1c(C(=O)OC)cc2c1ccn2-c1ccc(F)cc1
  -23, -1, 4040, 18, 12, 15, 97*
2	COc1ccc(N2CCN(S(=O)(=O)c3cccc4nsnc34)CC2)cc1
  -7, 4, 9436, -1, 4, 2.2, 9
3	O=c1cc(-c2ccc(F)cc2)oc2ccccc12
  -77, -3, 2626, 16, 14, 4.8, -8
4	COC(=O)[C@@H](NC(=O)NCCC1=CCCCC1)C(C)C
  -20, -16, 4832, 6, -1, 2.5, 3
5	CCOC(=O)C(=O)Nc1nnc(C2CCCCC2)s1
  -15, -5, 3497, ., ., 3.4, -2
6	COc1cc(C=NNC(=O)C[n+]2ccccc2)cc(OC)c1OC
  ., ., ., 2, 7, 2.6, 2
7	COc1ccc(C(=O)CSc2nnc(-c3cnccn3)n2Cc2ccco2)cc1
  -14, -6, 4564, -5, -14, 0.9, -17
8	O=C(/C=C/c1ccc(Br)o1)NCc1ccccc1
  -22, 15, 4071, 21, 14, 3.0, 7
9	O=C(COc1ccc(Cl)cc1)Nc1ccc2c(c1)nc1n2CCOC1
  -26, -7, 6123, 6, -8, 0.1, 3
10	CCCc1cc(-n2ccnc2)n2c(nc3ccccc32)c1C#N
  -13, 1, 5393, ., ., 7.0, 27
11	N#CC1=C(N)SC(N)=C(C#N)C1C1C=CCCC1 (centres undefined)
  -14, -2, 19353*, -4, 3, 7.3, 4
12	Cc1ccc(NC(=O)CCNS(=O)(=O)c2ccc(OC(F)(F)F)cc2)c(O)c1
  -4, -6, 6615, 6, 3, 7.3, 6
13	CCOc1ccc(NS(=O)(=O)c2ccc3c(c2)N(C(C)=O)CCS3)cc1
  5, 6, 5451, -12, 6, 0.8, -1
14	Cc1ccc(S(=O)(=O)N2CCOCC2)cc1C(=O)NCC1CCCCC1
  5, ., 3498, -5, 4, 1.3, 1
15	CCN1C(=O)[C@@H]2[C@@H](c3ccc(-c4cccc(Cl)c4)c(OC)c3)N3CCCC[C@@]3(C(=O)OC)[C@@H]2C1=O
  -4, -8, 4583, ., ., ., .

Single entries from above.
#7 in Mtb hypoxia rep: -5
#15 in Autofluor counter: 4583

(more compounds)
Fields – PrP UTR inh, BJeLR lethal, Autofluor counter, Mtb hypoxia rep, Mtb hypoxia rep growth, RN4220 kill, ugtP null kill
16	CCc1ccc(C2c3[nH]c4ccccc4c3CCN2C(=O)c2cc[n+]([O-])cc2)cc1 (centres undefined)
  ., 16, 4660, 6, 4, 4.1, 6
17	O=C(Nc1ccc(N2CCOCC2)cc1Cl)C1CCN(C(=O)OCc2ccccc2)CC1
  -14, 5, 4172, 5, 10, 3.4, 7
18	CCCCN(C)CCCNC(=O)c1cc(-c2cccs2)nc2ccccc12
  -16, -1, 4022, 9, 3, -6.5, 12
19	O=C(NCCc1c[nH]c2ccccc12)C1CCN(S(=O)(=O)c2ccccc2F)CC1
  -6, 16, 4559, 10, 14, 13, 9
20	Cc1sc(NC(=O)c2ccc(OCC(C)C)cc2)c(C(N)=O)c1-c1ccc(Cl)cc1Cl
  -38, 2, 3170, -3, 3, -3.9, 54
21	O=C(O)CCC(NC(=O)C1CCCN1C(=O)OCc1ccccc1)C(=O)O (centres undefined)
  -26, -1, 4096, -4, -1, 0.6, 1
22	COc1ccc(NS(=O)(=O)c2ccc(NC(=S)NC(=O)CC(C)C)cc2)cc1
  -24, -6, 3797, ., ., 2.9, 88*
23	CCCCOC(=O)CN1C(=O)c2ccc(C(=O)OCCCC)cc2C1=O
  -16, 4, 2943, -8, -4, 2.0, 2
24	COC(=O)c1cc(-c2ccccc2)on1
  -11, 0, 3111, ., ., 9.5, 2
25	CCOc1ccc(C(=O)NCC(=O)OCc2c(C)noc2C)cc1
  -11, 7, 8870, 16, 10, 2.8, 21
26	Cc1ccc(-c2nc(-c3nccc4ccccc34)oc2-c2ccccc2)cc1
  -23, -4, 4608, ., ., ., .
27	CCOC(=O)Cn1nc(C)n(-c2ccc(C(C)C)cc2)c1=O
  -16, -2, 16947*, 7, 13, 4.7, 7
28	O=C1c2ccccc2CCC12N=NCC2c1ccccc1 (centres undefined)
  -17, 1, 4299, -3, -4, 1.1, 7
29	O=C(NN=Cc1ccc(O)c([N+](=O)[O-])c1)C1COc2ccccc2O1 (centres undefined)
  ., ., ., ., ., 4.8, 13
30	O=c1cc(CN2CCC(Cc3ccccc3)CC2)nc2sccn12
  -20, 1, 2746, 3, -6, 3.8, 6

Another view of part of the listing above.
28: O=C1c2ccccc2CCC12N=NCC2c1ccccc1 (centres undefined)
- PrP UTR inh: -17
- BJeLR lethal: 1
- Autofluor counter: 4299
- Mtb hypoxia rep: -3
- Mtb hypoxia rep growth: -4
- RN4220 kill: 1.1
- ugtP null kill: 7
29: O=C(NN=Cc1ccc(O)c([N+](=O)[O-])c1)C1COc2ccccc2O1 (centres undefined)
- PrP UTR inh: .
- BJeLR lethal: .
- Autofluor counter: .
- Mtb hypoxia rep: .
- Mtb hypoxia rep growth: .
- RN4220 kill: 4.8
- ugtP null kill: 13

Other entries.
Fields – PrP UTR inh, BJeLR lethal, Autofluor counter, Mtb hypoxia rep, Mtb hypoxia rep growth, RN4220 kill, ugtP null kill
31	COc1ccc2[nH]cc(CC(=O)O)c2c1
  -12, ., 4933, ., ., 8.4, 11
32	CCN1c2ccccc2NC2C1C(C(C)=O)C(=O)N2c1ccc(Cl)cc1 (centres undefined)
  -19, 2, 19587*, 0, 11, -1.3, -19
33	COc1ccc2[nH]c(=O)c(CN(CC3CCCO3)C(=O)Nc3ccccc3OC)cc2c1 (centres undefined)
  -14, 16, 2384, -5, -2, -15, -8
34	CCOC(=O)C1CCN(C(=O)C2COc3ccccc3O2)CC1 (centres undefined)
  -19, 1, 5220, 7, -2, 9.2, -1
35	CCC(NCc1cccnc1)c1ccc(OC)c(OC)c1 (centres undefined)
  -57, ., 3110, 11, 3, -0.2, 7
36	Cc1cc(C)c2cc(C#N)c(NCCCNC(=O)CCC(=O)O)nc2c1
  -40, -8, 21922*, 2, 12, -0.7, -3
37	Cc1cccc(C(=O)NNC(=S)NC(=O)c2cccs2)c1
  8, 6, 6585, ., ., ., .
38	CCCCCCN(C(=O)CCCCCN1C(=O)NC(c2ccc(-c3ccccc3)cc2)C(C(=O)OCc2ccccc2)=C1C)C(C(=O)NCCCC)c1ccc(-c2ccccc2)cc1 (centres undefined)
  ., -7, ., 6, 10, 5.7, 0
39	COc1ccccc1CNC(=O)COC(=O)c1ccc(Cl)c(N)c1
  2, -1, 3207, 6, 3, 9.3, 15
40	O=C(C1Cc2ccccc2CN1S(=O)(=O)c1ccc(F)cc1)N1CCOCC1 (centres undefined)
  ., -17, 11568, 6, 1, 3.1, 1
41	O=C(COc1ccccc1)Nc1ccc2c(c1)C(=O)N(CC1CCCO1)C2=O (centres undefined)
  -26, 0, 4275, ., ., ., .
42	Cc1[nH]c2ccccc2c1C(=O)CN1C(=O)C(=O)N(C2CCCC2)C1=O
  -6, -11, 3368, -4, -3, 2.0, -11
43	Cc1cc2nc(-c3ccc(SCc4ccc(C#N)cc4)nc3)[nH]c2cc1C
  -10, -1, 11224, -1, 4, -7.8, -16
44	Cc1ccc2cc(CN(CC3CCCO3)C(=S)NCc3ccco3)c(=O)[nH]c2c1C (centres undefined)
  -9, 14, 9673, 11, 6, 1.7, 11
45	CC(C)CN1C(=O)C(=O)N(CC(=O)N2CCC(Cc3ccccc3)CC2)C1=O
  -31, 1, 3905, 2, 2, 3.0, 0

Three compounds out of the list, sorted by molar mass, lowest first.
Fields – PrP UTR inh, BJeLR lethal, Autofluor counter, Mtb hypoxia rep, Mtb hypoxia rep growth, RN4220 kill, ugtP null kill
35	CCC(NCc1cccnc1)c1ccc(OC)c(OC)c1 (centres undefined)
  -57, ., 3110, 11, 3, -0.2, 7
41	O=C(COc1ccccc1)Nc1ccc2c(c1)C(=O)N(CC1CCCO1)C2=O (centres undefined)
  -26, 0, 4275, ., ., ., .
40	O=C(C1Cc2ccccc2CN1S(=O)(=O)c1ccc(F)cc1)N1CCOCC1 (centres undefined)
  ., -17, 11568, 6, 1, 3.1, 1

Next part.
Fields – PrP UTR inh, BJeLR lethal, Autofluor counter, Mtb hypoxia rep, Mtb hypoxia rep growth, RN4220 kill, ugtP null kill
46	CN1CC(C(=O)c2ccc(Cl)cc2)C(c2ccc(Cl)cc2Cl)C1 (centres undefined)
  -7, 4, 4036, -5, -4, 4.2, 12
47	Cc1cc(N)ccc1-n1c(C)ccc1C
  -16, 3, ., 6, -2, 3.6, 9
48	O=c1cnnc(Nc2cccc(F)c2)[nH]1
  -16, -5, 5274, -4, 2, 5.0, 0
49	CCc1cc2c(CN3CCN(CCO)CC3)cc(=O)oc2cc1O
  -25, -1, 9985, -10, 2, -1.3, -2
50	CC(=O)n1cc(C2C=C(C(=O)O)OC(OCc3ccc(CO)cc3)C2)c2ccccc21 (centres undefined)
  ., ., ., -4, 9, 0.8, -1
51	CC(=O)N=c1n(C)c2ccccc2n1CCOc1ccccc1
  -16, 2, 2162, -9, -4, 5.3, 14
52	Cc1ccc(SC/C(O)=C(\C#N)c2nc3ccccc3n2C)cc1
  -15, 9, 3453, ., ., ., .
53	COc1ccccc1N1CCN(C2CCCC(C)C2)CC1 (centres undefined)
  -19, -6, 12835, 12, 19, 5.0, 8
54	COC(=O)c1ccc(NC(=O)NC(=O)Oc2ccccc2)cc1
  -12, ., 4253, -8, -4, 0.9, -3
55	CC(=NNc1cccc([N+](=O)[O-])c1)c1ccccc1O
  ., ., ., -5, 3, -12, 1
56	CC(C)N1C(=S)SC(C)(C)C1NO (centres undefined)
  -22, 3, 5011, ., ., 6.2, 0
57	C/C=C/c1ccc(OCCOCCNCc2ccccc2)c(OC)c1
  -8, 0, 4202, 2, 9, 0.9, -3
58	CC(C)=C(NC(=O)c1ccccc1)C(=O)NC(Cc1ccccc1)C(=O)O (centres undefined)
  11, -3, 3004, 7, -6, 4.9, 3
59	COc1ccc(S(=O)(=O)N2CCOC2CNC(=O)C(=O)NCc2ccc(F)cc2)cc1 (centres undefined)
  0, 6, 5144, -3, -3, 0.1, 2
60	Cc1cc(Nc2cc(F)ccc2C)n2nc(C)nc2n1
  -10, -11, 4463, ., ., -0.3, -1
61	O=C(NNC(=O)c1ccc(Br)s1)c1csc(N2CCOCC2)n1
  -9, ., 5837, -4, 3, 0.4, -1
62	CCc1ccc(Sc2cc(C(=O)NCCN3CCOCC3)c3ccccc3n2)cc1
  -4, -7, 1952, 8, 7, 4.3, 9
63	CCCn1nc(C(=O)OCn2nnc3ccccc3c2=O)c2ccccc2c1=O
  1, -20, 2264, 8, -6, 4.6, 5
64	CCN(CC)CCNc1nc2ccccc2n1C
  -9, -10, 3309, ., ., 2.8, 0
65	Cc1ccc(Cn2nnnc2CN2CCC(NC(=O)c3ccccc3F)CC2)cc1
  2, 13, 3191, 3, 5, 2.7, 3
66	Cc1ccc(N(C)S(=O)(=O)c2cccc(C(=O)Oc3ccc4c(C)cc(=O)oc4c3)c2)cc1
  -6, 7, 2684, 13, -3, 5.3, 3
67	Cc1ccccc1C(=O)OCn1nnc2ccccc2c1=O
  -12, -1, 6062, 0, -15, 0.3, 6
68	COc1ccc(CCNC(=O)CN2C(=O)CCSc3ccccc32)c(OC)c1
  -7, 7, 4074, -2, -2, -0.4, 7
69	N#CC1(NC(=O)COC(=O)c2cccc(-n3cnnn3)c2)CCCCC1
  -49, 13, 5420, 2, 7, 0.5, 8
70	CCN(CC(=O)Nc1ccc(Br)cc1)CC(=O)Nc1cc(C)on1
  -8, ., 4694, 0, 4, 3.0, 5
71	O=C(NCc1ccccc1)c1nc(S(=O)(=O)Cc2ccccc2)ncc1Cl
  -16, 26, 5516, -7, 5, 27, 19
72	CCOc1ccccc1N(CC(=O)Nc1ccc(OC)c(OC)c1)S(=O)(=O)c1ccccc1
  2, 0, ., 6, 0, 1.7, -3
73	Cc1ccc(C(=O)NC(=S)Nc2ccc3[nH]c(=O)[nH]c3c2)cc1
  -1, -8, 1934, 6, -3, 3.5, 7
74	COC(=O)CC(CP(=O)(O)CN(C)C=O)C(=O)OC (centres undefined)
  -17, 3, 5529, 4, 10, 3.3, 7
75	Nn1cnc2sc3c(c2c1=O)CCC3
  -17, -9, 2454, ., ., -0.1, 6
